Assay outcomes deposited in PubChem BioAssay by several laboratories.
HNF4A DNA FP – change in binding of human HNF4A to DNA, primary screen, biochemical, fluorescence polarization, FITC-DNA; Hepatocyte nuclear factor 4-alpha (Homo sapiens), P41235; activity change, % at 10 µM; 1 h; 360,000 tested, 0.3% active; AID 1224865, 2016; in the data active = activity change above about 30%, passing the limit was not always enough;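 also: controls were the assay level and a saturating level of protein; the project sought stronger binding though the title names inhibitors; some compounds called inactive have numbers as strong as hits; positive values seem to mean higher polarization but the record does not say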
AF4-AF9 inh – inhibitors of AF4 peptide binding to AF9, primary screen, biochemical, AlphaScreen, biotin-AF4 peptide, FLAG-AF9, single point; inhibition, % at 10 µM; 350,000 tested, 0.47% active; AID 651704, 2012;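 active = every replicate reaching a set inhibition limit, whatever the replicate mean, cut at about 25% in these data; inconclusive = mean inhibition reaches that limit but some replicates miss it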;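 also: 0% = plate neutral control median and 100% = total signal loss; the record names both 10 and 1 µM as test concentration; the first replicate is given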
Target sequence (P42568 whole entry, looked up): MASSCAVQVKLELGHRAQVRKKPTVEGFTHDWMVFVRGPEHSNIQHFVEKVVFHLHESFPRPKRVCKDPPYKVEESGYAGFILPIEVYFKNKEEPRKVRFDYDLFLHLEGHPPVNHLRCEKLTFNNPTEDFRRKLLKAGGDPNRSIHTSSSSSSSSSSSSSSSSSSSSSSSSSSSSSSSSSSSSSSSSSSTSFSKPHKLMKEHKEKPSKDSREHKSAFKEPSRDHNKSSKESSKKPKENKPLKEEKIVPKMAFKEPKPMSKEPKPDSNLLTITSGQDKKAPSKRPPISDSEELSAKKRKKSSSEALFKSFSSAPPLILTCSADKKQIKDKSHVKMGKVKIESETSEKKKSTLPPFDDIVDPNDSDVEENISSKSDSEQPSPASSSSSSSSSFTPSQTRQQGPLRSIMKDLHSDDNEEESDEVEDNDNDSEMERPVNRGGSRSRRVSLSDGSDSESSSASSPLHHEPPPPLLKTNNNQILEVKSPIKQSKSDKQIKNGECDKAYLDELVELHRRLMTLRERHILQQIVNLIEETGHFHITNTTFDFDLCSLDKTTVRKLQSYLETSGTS
E coli growth – E. coli growth inhibition, primary screen, OD600; Escherichia coli growth, 23 h; active compounds read low; 330,000 tested, 0.21% active; OD600 absorbance (test concentration not listed);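 active = OD600 absorbance below the run mean of sample wells minus 3.6 SD, in any replicate, cut at about 0.56 in these data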;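 also: stock transfer was 300 nL into about 60 µL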
Vif A3G – inhibitors of Vif binding to APOBEC3G peptide, primary screen, biochemical, TR-FRET, GST-Vif 1-94, biotin-A3G peptide, dose response retest (AID 1117319). 260,000 tested, 0.57% active. Virion infectivity factor (Human immunodeficiency virus type 1 group M subtype B (isolate …. TR-FRET GST-Vif / biotin-A3G peptide binding; higher % means a stronger effect; test concentration not given here; strong numbers were not always called active. inhibition, %; hits with a dose series show IC50 in µM;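 active = above the screen mean plus three standard deviations and confirmed in dose response; inconclusive = results disagree or hit not tested in dose response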;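 also: Vif residues 1-94 fused to GST binding biotinylated APOBEC3G peptide 110-148; 0% = full assay without inhibitor and 100% = GST in place of GST-Vif; retest series ran down from 100 µM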
FGF22 binding – binders of human FGF22 protein, primary screen, FGF22 synaptogenesis inhibitor project, biophysical, thermal shift, single point | Fibroblast growth factor 22 (Homo sapiens), Q9HCT0 | recombinant FGF22 thermal shift, SYPRO orange fluorescence; percent of sucrose octasulfate shift, DMSO zero | calls only at 9.99 µM | 340,000 tested, 1.5% active | AID 651658, 2012;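 active = melting point raised past a set limit in the mean and every replicate; inconclusive = no clear call; three in four hits are not shown here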
Target sequence (Q9HCT0 whole entry, looked up): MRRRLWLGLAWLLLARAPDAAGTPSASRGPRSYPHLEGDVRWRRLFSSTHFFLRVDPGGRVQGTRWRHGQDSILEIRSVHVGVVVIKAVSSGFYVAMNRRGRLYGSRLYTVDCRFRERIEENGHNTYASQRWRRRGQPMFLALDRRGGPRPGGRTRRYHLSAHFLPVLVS
ALR H2O2 inh – inhibitors of human ALR sulfhydryl oxidase, primary screen, biochemical, H2O2 detection, HRP-luminol luminescence, single point | FAD-linked sulfhydryl oxidase ALR (Homo sapiens), P55789 | purified ALR, DTT oxidation | inhibition, % (test concentration not listed) | 290,000 tested, 3.8% active | AID 485317, 2010;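 active = mean and each replicate at 75% or more; inconclusive = only one of the two met; inactive = neither met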;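 also: stock transfer was 7.5 nL into about 7.5 µL; 0% = neutral wells and 100% = wells with inactivated enzyme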
Target sequence (P55789 whole entry, looked up): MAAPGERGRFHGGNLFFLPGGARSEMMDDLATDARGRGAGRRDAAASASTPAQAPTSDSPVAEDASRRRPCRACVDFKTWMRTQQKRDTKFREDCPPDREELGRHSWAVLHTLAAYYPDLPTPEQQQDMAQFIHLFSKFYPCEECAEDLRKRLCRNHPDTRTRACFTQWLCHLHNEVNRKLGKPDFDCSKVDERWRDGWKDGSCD
rRNA inh HTS – reduced GFP signal of wild-type E. coli, primary screen, bacterial rRNA inhibitor project, GFP/RFP fluorescence, OD600, single point. E. coli WT GFP vs humanized-ribosome RFP mutants, 24 h; active compounds read low; DMSO median 0, no signal -100. GFP signal change (wild-type ribosome), % (test concentration not listed). 350,000 tested, 1.6% active. AID 720706, 2013;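 active = significant combined selectivity score with lowered wild-type GFP, culture density cut under 30%, mutant RFP and density less affected; inactive = any of these conditions unmet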; also: one replicate is shown; some compounds called inactive have numbers as strong as hits
rRNA inh HTS OD600 – second read-out of rRNA inh HTS, no call of its own (marks repeat the call); OD600 change, %; measured here: OD600 growth;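 optical density of the mix in the first replicate; 0 = DMSO median and -100 = no signal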
rRNA inh HTS RFP – recorded beside rRNA inh HTS, whose call it bears; RFP signal change, %; measured here: RFP humanized mutant strains;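 first replicate; 0 = DMSO median and -100 = no signal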
An asterisk follows results filed as active; i = inactive; ? = inconclusive; . = not tested or not shown. A portion of the library; count on the stated rates, not on these rows.

compound	HNF4A DNA FP	AF4-AF9 inh	E coli growth	Vif A3G	FGF22 binding	ALR H2O2 inh	rRNA inh HTS	rRNA inh HTS OD600	rRNA inh HTS RFP
COc1ccccc1OCCNC(=O)CN1C(=O)NC2(CCCCC2)C1=O	-2.9	-0.4	0.685	.	i	.	10.2	7.8	4.5
Cc1cc(=O)[nH]c(N/N=C/c2c(O)n(-c3ccccc3)c(=O)c3ccccc23)n1	21.0	3.4	0.671	?	i	.	24.4	21.9	8.6
COc1ccc2cc(S(=O)(=O)NCCCN3CCOCC3)ccc2c1	-1.6	.	0.724	12.5%	.	.	.	.	.
C[C@H](CO)N1C[C@H](C)[C@H](CN(C)C(=O)NC2CCCCC2)OCCCC[C@H](C)Oc2ccc(NC(=O)Nc3ccc(F)cc3)cc2C1=O	.	1.1	.	.	i	.	-3.6	-6.3	-5.8
CCn1c(CSc2nc3ccccc3s2)n[nH]c1=S	-0.9	.	0.661	1.3%	.	15.9	.	.	.
COc1ccc(C(=O)NNC(=O)CSc2nnc(COc3ccc4ccccc4c3)n2C)cc1	-0.8	.	0.706	-12.8%	.	-20.3	.	.	.
CSc1nc2[nH]c(=O)[nH]c2c(=O)[nH]1	3.6	-2.2	0.666	-2.6%	.	.	8.2	9.9	-0.2
Cc1ccc(S(=O)(=O)N(C)C[C@@H]2OCCCC[C@@H](C)Oc3ccc(NC(=O)NC4CCCCC4)cc3C(=O)N([C@H](C)CO)C[C@H]2C)cc1	.	-1.8	.	.	i	.	-2.9	5.0	-3.5
Cc1ccc(-c2ccc3c(c2)O[C@@H](CN(C)Cc2ccccn2)[C@@H](C)CN([C@@H](C)CO)S3(=O)=O)cc1	.	10.0	.	.	i	.	-44.6	-64.0	11.7
CCn1c(C)c(P(=O)(N2CCOCC2)N2CCOCC2)c2ccccc21	-5.0	-1.4	0.649	19.6%	i	-2.5	22.3	25.1	2.9
COc1cccc(N2CCN(C(=O)C3CCN(S(=O)(=O)c4cccs4)CC3)CC2)c1	0.4	-0.8	0.725	-2.5%	i	9.5	-11.8	-8.4	-2.3
NC(=O)C1CCN(C(=O)COc2ccc3ccc(=O)oc3c2)CC1	1.4	-2.3	0.701	.	i	.	6.9	8.5	2.0
COc1ccc(NC(=O)C2CC(=O)N/C(=N/N=C/c3ccco3)S2)cc1 (configuration not stated)	1.2	0.7	.	6.7%	i	-0.8	8.6	6.4	-0.6
COc1ccc(OCC(=O)OCC(=O)Nc2ccc3[nH]c(=O)[nH]c3c2)cc1	5.9	-0.8	0.702	0.7%	i	-2.1	26.7	26.5	1.4
O=C1c2ccccc2C(=O)N1CC(O)CN1CCOCC1 (configuration not stated)	0.1	.	0.697	0.8%	.	5.4	.	.	.
COc1ccc(CNCC(O)(c2ccccc2)c2ccccc2)cc1	5.9	-3.6	0.665	-3.0%	i	-4.5	9.3	3.2	3.8
Cc1ccsc1/C=C1\SC(N2CCOCC2)=NC1=O	0.4	.	0.721	-9.8%	.	-15.8	.	.	.
Cc1cc(C(=O)OCC(=O)NCc2ccccc2)c(C)o1	1.0	2.8	0.654	1.5%	i	-5.1	8.6	13.9	4.6
CCN1CCN(c2ccc(NC(=O)c3ccc(C#N)cc3F)cc2Cl)CC1	-3.5	4.4	0.726	6.3%	i	.	1.4	-4.3	-0.9
CC(C)CC1C(=O)N(Cc2cn(Cc3ccco3)nn2)CCS(=O)(=O)N1Cc1ccc(-c2ccccc2)cc1 (configuration not stated)	3.4	1.4	.	-1.9%	i	.	-2.5	-3.4	8.1
CC(NC(=O)c1ccc(N)cc1)c1ccccc1 (configuration not stated)	3.2	0.7	0.677	-3.0%	.	-0.4	1.2	16.9	-3.2
O=C(C1CCCN(S(=O)(=O)c2cccc3nonc23)C1)N1CCN(c2ccccc2Cl)CC1 (configuration not stated)	4.5	.	0.727	-1.1%	.	.	.	.	.
Cc1ccc(-c2csc3nc(CN(C)Cc4ccccc4)[nH]c(=O)c23)cc1	7.2	-2.0	0.695	.	i	-5.7	-31.5	-47.6	5.1
CCN(CC)S(=O)(=O)c1cccc(C(=O)Oc2cccc(NC(=O)c3cccs3)c2)c1	1.7	.	0.74	-2.4%	.	-9.2	.	.	.
CN1C(=O)c2cc(NC(=O)Nc3ccccc3)ccc2OC[C@H]2O[C@H](CC(=O)O)CC[C@@H]21	.	-1.5	.	.	i	.	2.2	-0.5	-4.1
Cc1ccccc1NC(=O)N1CCc2ccccc2C1	2.5	?	0.683	-9.5%	i	-2.5	9.6	7.8	-0.3
COc1ccccc1OCCCC(=O)Nc1nnc(C2CCCO2)s1 (configuration not stated)	-1.4	-2.8	0.691	-0.4%	i	-3.3	-3.5	-6.5	-0.7
CCN1CCN(c2cc(C)c3cc(NC(=O)CCC(=O)Nc4ccc(OC)c(OC)c4)ccc3n2)CC1	0.2	1.1	0.672	10.8%	i	-6.2	10.6	7.1	-0.9
[N-]=[N+]=NC(c1ccccc1)C(NC(=O)c1cc(C(F)(F)F)cc(C(F)(F)F)c1)c1ccccc1 (configuration not stated)	4.0	-4.3	.	.	i	.	19.6	10.6	-2.2
O=C(c1cccc([N+](=O)[O-])c1)N1CCCC(C(=O)N2CCCCC2)C1 (configuration not stated)	-6.7	-2.6	0.65	-2.1%	i	.	9.0	4.1	-0.5
CCOC(=O)C(Cc1ccccc1)C(=O)NCc1ccccc1 (configuration not stated)	1.2	-2.1	0.616	.	i	-14.1	-6.2	-7.9	-1.0
Cc1c(NC(=O)c2nn(C)c(=O)c3ccccc23)c(=O)n(-c2ccccc2)n1C	4.8	.	0.683	.	.	-1.3	.	.	.
O=C1CCN(S(=O)(=O)c2ccccc2)C2CCCCC12 (configuration not stated)	-1.7	.	0.691	-1.3%	.	-5.9	.	.	.
O=S(=O)(NCc1cc(-c2ccccc2Cl)no1)c1ccc(Cl)cc1	1.1	.	0.701	-5.6%	.	-8.4	.	.	.
COC(=O)c1ccc(N2CCCCC2)c(NS(=O)(=O)c2ccc(C)cc2)c1	-0.2	2.6	0.705	1.8%	i	-12.6	4.2	-6.5	1.3
CCCC(=O)O/N=C(\c1ccccc1)c1ccncc1	7.1	-2.2	.	.	i	-5.7	10.6	7.5	-0.8
O=C(c1cc(-c2ccco2)on1)N1CCCc2ccccc21	5.5	5.2	0.719	12.2%	i	-0.8	8.1	10.1	-2.6
Cc1cc2c(C)nc(N/N=C/c3ccccc3)nc2o1	0.4	0.2	.	10.5%	i	3.7	7.9	10.5	-2.9
O=C1NC2(CCCCCC2)C(=O)N1Cc1c(F)cccc1Cl	-0.1	3.7	0.697	-0.1%	i	.	-2.5	-13.9	-1.5
COc1ccc(S(=O)(=O)N(C)C[C@@H]2Oc3ccc(NC(=O)c4ccncc4)cc3CC(=O)N([C@H](C)CO)C[C@H]2C)cc1	.	0.5	.	.	i	.	-2.4	2.0	-0.6
CO[C@@H]1CN(C)C(=O)c2ccc(NS(=O)(=O)CC(F)(F)F)cc2OC[C@H](C)N(Cc2nccs2)C[C@H]1C	.	1.2	.	.	i	.	0.8	10.3	-1.9
Clc1ccc(NCn2cncn2)nc1	-1.7	.	0.727	10.8%	.	1.2	.	.	.
C/C(Cn1nnc([N+](=O)[O-])n1)=N\NC(=O)c1ccc(C)cc1	-2.8	-3.0	.	-7.0%	i	-53.4	7.4	6.7	-3.6
CN(C)S(=O)(=O)c1ccc(N2CCCC2)c(C(=O)OCC(=O)N2CCN(c3ccccc3)CC2)c1	-3.0	-0.7	0.634	9.3%	i	5.4	-2.0	-7.0	0.5
CN(C)CC(C)(C)CNCc1cc(=O)oc2ccc3ccccc3c12	0.0	-9.6	0.689	.	i	.	6.1	8.0	-0.5
O=C(C[C@@H]1C[C@H]2c3cc(NC(=O)CC4CC4)ccc3O[C@H]2[C@H](CO)O1)NCc1ccccc1	.	-6.3	.	.	i	.	-1.2	0.5	-0.6
COc1ccccc1CNC(=O)CCNS(=O)(=O)c1cccc2nonc12	2.5	1.0	0.692	5.0%	i	.	16.6	15.5	5.2
CCCN(C)C[C@H]1Oc2ncc(-c3ccncc3)cc2C(=O)N([C@@H](C)CO)C[C@@H]1C	.	-10.4	.	.	i	.	4.9	3.7	1.0
OCC1=C[C@@H](O)[C@@H]2C=CO[C@@H](O[C@@H]3O[C@H](CO)[C@@H](O)[C@H](O)[C@H]3O)[C@H]12	-0.8	-3.2	0.702	0.4%	i	.	26.4	9.4	4.6
Cc1cc(C)n(S(=O)(=O)c2ccc(Cl)cc2)n1	4.2	-0.3	0.651	-4.4%	i	-7.7	-2.7	2.6	-2.5

Next part
compound	HNF4A DNA FP	AF4-AF9 inh	E coli growth	Vif A3G	FGF22 binding	ALR H2O2 inh	rRNA inh HTS	rRNA inh HTS OD600	rRNA inh HTS RFP
Cc1ccc(C(=O)COC(=O)CN2C(=O)C3CC=CCC3C2=O)cc1C (configuration not stated)	-0.6	-0.9	.	.	i	.	7.7	7.7	0.6
Cc1noc(C)c1NC(=O)Nc1ccc2c(c1)CC(=O)N([C@@H](C)CO)C[C@H](C)[C@H](CN(C)C(=O)Nc1ccc(F)cc1)O2	.	2.3	.	.	i	.	3.4	-2.2	1.2
Cc1ccc(S(=O)(=O)N(C)C[C@@H]2Oc3ncc(C#CC4(O)CCCC4)cc3C(=O)N([C@@H](C)CO)C[C@@H]2C)cc1	.	0.9	.	.	i	.	2.0	8.9	-1.7
CSc1nc2ccc(S(=O)(=O)N3CCc4ccccc43)cc2s1	0.8	10.5	0.748	-0.5%	i	1.9	-0.1	1.9	-2.5
COC(=O)c1c(C)[nH]c(C(=O)CSc2nnnn2-c2ccccc2)c1C	-0.6	.	0.75	-4.7%	.	-5.5	.	.	.
CCOC1=C2[C@@H](CN(S(=O)(=O)c3ccc(C)cc3)[C@H]2c2ccccc2Cl)[C@H]2C(=O)N(C)C(=O)[C@H]2C1	4.6	1.3	.	.	i	.	-4.2	-28.6	-1.8
C=CCn1c(-c2cccs2)nc2ccccc21	4.3	.	0.704	-1.8%	.	13.8	.	.	.
Clc1ccc(-c2nc3ccc(Cl)cn3c2Cc2ccccc2)cc1	0.8	2.9	.	-5.4%	i	.	-13.1	-49.8	21.0
COc1ccc(C2C(C(=O)OC(C)C)=C(C)N=c3s/c(=C\c4cccs4)c(=O)n32)cc1 (configuration not stated)	3.0	.	.	5.8%	.	4.8	.	.	.
CCOCCCNC(=O)CCSc1ccc(C)cc1	14.5	.	0.654	-11.8%	.	-4.0	.	.	.
Cc1ccc(-n2c(SCC(=O)OC(C)C)nnc2-c2ccccn2)cc1	2.3	.	0.661	1.0%	.	-5.4	.	.	.
O=C(NC(Cc1ccccc1)C(=O)N1CCCCCC1)c1ccccc1 (configuration not stated)	-1.7	-2.0	0.676	5.5%	i	-16.3	2.2	3.1	-2.8
CC(C)CCN1CCN(Cc2cccn2-c2cccnc2)CC1CCO (configuration not stated)	1.8	-5.1	0.635	67.3%	i	-2.2	8.5	10.1	7.9
